Vaccinia stage: blocks a specific stage of Vaccinia orthopoxvirus infection, primary screen, cell-based, single point; Vaccinia-infected cells, mCherry/Venus stage reporter fluorescence; active compounds read low; some inactives read as strong as hits; activity change (mCherry), % (no concentration beside the values); 89,000 compounds, 0.01% hits;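 active = mCherry past -33% and 40 or more points under the early reporter, replicates agreeing; inconclusive = past -33% without that gap or agreement; tested in A549 cells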;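 note: scaled between vehicle wells and reference inhibitor wells; 23 nL library stock went into each well; one replicate is shown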
Vaccinia stage Venus: further read-out of Vaccinia stage, marked with its call; activity change (Venus), %; measured here: Venus reporter, other viral stage;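 negative = less Venus signal; first of two replicates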
* = called active by the depositor; ? = inconclusive; . = not tested or not shown.

SMILES | Vaccinia stage | Vaccinia stage Venus
CC(C)NC(=O)N(C)C[C@@H]1Oc2c(NC(=O)Nc3ccccc3)cccc2C(=O)N([C@@H](C)CO)C[C@@H]1C | -16.7 | -13.6
C[C@@H]1CN([C@H](C)CO)C(=O)c2cc(NC(=O)Nc3ccc(F)cc3)ccc2O[C@@H]1CN(C)S(C)(=O)=O | 15.1 | 14.1
C[C@H](CO)N1C[C@H](C)[C@@H](CN(C)S(=O)(=O)c2ccc(Cl)cc2)Oc2ccc(NC(=O)Nc3ccc(F)cc3)cc2CC1=O | 17.1 | 9.8
C[C@H](CO)N1C[C@H](C)[C@@H](CN(C)Cc2ccc(-c3ccccc3)cc2)Oc2ccc(NC(=O)Cc3cn(C)c4ccccc34)cc2CC1=O | -2.1 | -1.3
COc1ccccc1NC(=O)C[C@H]1CC[C@H]2[C@@H](COc3ccc(NC(C)=O)cc3C(=O)N2C)O1 | 15.0 | 8.6
CO[C@@H]1CN(C)C(=O)c2ccc(NC(=O)Nc3ccccc3)cc2OC[C@@H](C)N(C(=O)Nc2c(C)noc2C)C[C@H]1C | 9.6 | -3.3
C[C@H](CO)N1C[C@H](C)[C@@H](CN(C)S(=O)(=O)c2cccs2)Oc2c(NS(=O)(=O)c3cn(C)cn3)cccc2C1=O | 14.0 | 11.1
Cc1cccc(S(=O)(=O)N[C@H]2CC[C@@H](CCNC(=O)c3cnccn3)O[C@H]2CO)c1 | -5.7 | 4.8
CCS(=O)(=O)N[C@H]1C=C[C@H](CC(=O)NC2Cc3ccccc3C2)O[C@H]1CO | 5.3 | 1.6
CC=Cc1ccc2n(c1=O)C[C@H]1[C@H](CO)[C@@H](C(=O)NC3CCC3)[C@@H]2N1C(=O)c1ccccn1 (mixture of isomers) | -5.2 | 8.3
CCCC#Cc1ccc([C@H]2[C@@H](CO)N3CCCCN(S(=O)(=O)CC)C[C@@H]23)cc1 | 40.5 | 5.8
COc1ccccc1S(=O)(=O)N(C)C[C@@H]1OCc2ccccc2-c2c(n(C)c3ccccc23)C(=O)N([C@H](C)CO)C[C@@H]1C | -16.2 | -19.6
CN1C(=O)N[C@@H]2c3ccccc3O[C@@]1(C)[C@@H]2COC(=O)c1ccc([N+](=O)[O-])cc1 | 11.3 | 6.1
C[C@H]1CN([C@@H](C)CO)C(=O)c2cccc(NS(=O)(=O)c3cn(C)cn3)c2O[C@@H]1CN(C)Cc1ccccc1 | 8.3 | 3.7
Cc1ccc(S(=O)(=O)N[C@@H]2CC[C@H](CCn3cc(-c4ccccc4F)nn3)O[C@H]2CO)cc1 | -12.3 | -5.9
C[C@H]1CCCCO[C@@H](CN(C)C(=O)CCCN(C)C)[C@@H](C)CN([C@@H](C)CO)C(=O)c2cc(NS(=O)(=O)c3ccc(Cl)cc3)ccc2O1 | 14.0 | 3.8
Cc1noc(C)c1S(=O)(=O)Nc1ccc2c(c1)C(=O)N([C@@H](C)CO)C[C@H](C)[C@H](CN(C)C(=O)Nc1ccc(F)cc1)OCCCC[C@H](C)O2 | -24.9 | -19.2
COc1ccc2c3c([nH]c2c1)[C@H](CO)N(C(=O)NC(C)C)CC31CN(C(=O)c2ccncc2)C1 | 23.4 | 12.9
COCC(=O)N(C)C[C@@H]1Oc2ncc(-c3ccccc3C)cc2C(=O)N([C@@H](C)CO)C[C@H]1C | 15.2 | 15.0
C[C@@H]1CN([C@@H](C)CO)C(=O)c2cc(NS(=O)(=O)c3cccs3)ccc2O[C@H]1CN(C)Cc1ccc(C(F)(F)F)cc1 | -20.4 | -20.7
O=C(C[C@@H]1C[C@@H]2c3cc(NC(=O)Nc4ccccc4)ccc3O[C@@H]2[C@H](CO)O1)NCC(F)(F)F | 7.4 | 7.0
C[C@@H]1CN([C@@H](C)CO)C(=O)c2cc(-c3cccc(C(=O)N(C)C)c3)cnc2O[C@H]1CN(C)S(=O)(=O)c1ccc(F)cc1 | 21.3 | 27.3
C[C@H]1CN([C@@H](C)CO)C(=O)Cc2cc(NC(=O)Nc3cccc4ccccc34)ccc2O[C@H]1CN(C)Cc1ccc(Oc2ccccc2)cc1 | 0.5 | -3.9
C[C@@H]1CCCCO[C@H](CN(C)Cc2ccncc2)[C@H](C)CN([C@@H](C)CO)C(=O)c2cc(NC(=O)Nc3ccccc3)ccc2O1 | -16.6 | -18.1
C[C@@H]1CN([C@H](C)CO)C(=O)c2cc(C#CC3CCCCC3)cnc2O[C@H]1CN(C)S(=O)(=O)c1ccc(F)cc1 | -15.5 | -16.2
Cc1noc(C)c1NC(=O)N(C)C[C@H]1Oc2ccc(NC(=O)Nc3ccccc3)cc2CC(=O)N([C@H](C)CO)C[C@@H]1C | 17.3 | 13.7
C[C@H]1CN([C@@H](C)CO)C(=O)c2cc(NC(=O)C3CCCCC3)ccc2O[C@H]1CN(C)Cc1ccncc1 | 37.7 | 36.2
CC(C)NC(=O)N(C)C[C@@H]1Oc2c(NC(=O)Nc3ccc(C(F)(F)F)cc3)cccc2C(=O)N([C@H](C)CO)C[C@H]1C | -15.5 | -14.8
O=S(=O)(Cc1ccccc1)N1CCCCN2[C@H](CO)[C@@H](c3ccc(-c4cncnc4)cc3)[C@H]2C1 | 15.1 | 3.1
C[C@@H]1CN([C@@H](C)CO)C(=O)c2cccc(NC(=O)c3ccncc3)c2O[C@H]1CN(C)C(=O)Nc1ccc(C(F)(F)F)cc1 | 2.5 | -4.7
Cc1noc(C)c1NC(=O)Nc1ccc2c(c1)CC(=O)N([C@@H](C)CO)C[C@H](C)[C@H](CN(C)CC1CCCCC1)O2 | -14.9 | -1.4
Cc1ccc(S(=O)(=O)Nc2ccc3c(c2)C(=O)N([C@H](C)CO)C[C@H](C)[C@@H](CN(C)C(=O)Nc2ccc(F)cc2)O3)cc1 | 8.9 | 8.8
C[C@@H]1CN([C@@H](C)CO)C(=O)Cc2cc(N(C)C)ccc2O[C@H]1CN(C)Cc1ccncc1 | 6.7 | 6.7
C[C@@H]1CCCCO[C@@H](CN(C)C(=O)Nc2ccc(F)cc2)[C@@H](C)CN([C@H](C)CO)C(=O)c2cc(NS(=O)(=O)c3ccc(Cl)cc3)ccc2O1 | 12.6 | -1.4
CCC(=O)N(C)C[C@H]1Oc2ncc(-c3ccccc3F)cc2C(=O)N([C@@H](C)CO)C[C@H]1C | 12.2 | 3.1
O=C(C[C@H]1C[C@H]2c3cc(NC(=O)CC4CC4)ccc3O[C@H]2[C@@H](CO)O1)NCCc1ccccc1 | 4.1 | -5.7
COc1ccc(S(=O)(=O)N(C)C[C@H]2Oc3c(NC(=O)c4ccc(-c5nccs5)cc4)cccc3C(=O)N([C@H](C)CO)C[C@H]2C)cc1 | 19.0 | 13.3
Cc1ccc(S(=O)(=O)N2CC[C@H]3[C@@H](CO)N(C)c4ccc(-c5cccc(C#N)c5)cc4[C@H]32)cc1 | -20.5 | -13.6
COc1ccc(NC(=O)Nc2ccc3c(c2)C(=O)N([C@@H](C)CO)C[C@H](C)[C@H](CN(C)C(=O)NC2CCCCC2)OCCCC[C@H](C)O3)cc1 | -27.9 | -19.6
Cc1noc(C)c1S(=O)(=O)Nc1ccc2c(c1)C(=O)N([C@H](C)CO)C[C@H](C)[C@@H](CN(C)S(=O)(=O)c1ccccc1)OCCCC[C@H](C)O2 | -31.6 | -26.1

Reformatted: results already given.
| molecule | Vaccinia stage | Vaccinia stage Venus |
| --- | --- | --- |
| COc1ccc(S(=O)(=O)N(C)C[C@H]2Oc3c(NC(=O)c4ccc(-c5nccs5)cc4)cccc3C(=O)N([C@H](C)CO)C[C@H]2C)cc1 | 19.0 | 13.3 |
| Cc1ccc(S(=O)(=O)N2CC[C@H]3[C@@H](CO)N(C)c4ccc(-c5cccc(C#N)c5)cc4[C@H]32)cc1 | -20.5 | -13.6 |

(further entries)
SMILES | Vaccinia stage | Vaccinia stage Venus
Cc1ccc(S(=O)(=O)Nc2cccc3c2O[C@@H](CN(C)Cc2ccc(C(F)(F)F)cc2)[C@@H](C)CN([C@H](C)CO)C3=O)cc1 | ? | .
CCC(=O)Nc1ccc2c(c1)OC[C@H](C)N(C(=O)c1ccncc1)C[C@@H](C)[C@@H](OC)CN(C)C2=O | 3.1 | 0.0
COc1ccccc1-c1cccc(-c2nc(C(=O)N3CCN(C)CC3)cc3c2[C@H](CCO)N([S@@](=O)C(C)(C)C)C3)c1 | -0.5 | 8.6
C[C@@H]1CN([C@H](C)CO)S(=O)(=O)c2ccc(-c3cncnc3)cc2O[C@H]1CN(C)CC1CC1 | 12.2 | 14.3
C[C@@H]1CN([C@H](C)CO)C(=O)c2cccc(NC(=O)Nc3ccccc3)c2O[C@H]1CN(C)Cc1ccc(C(=O)O)cc1 | 9.8 | 6.1
O=C(C[C@H]1CC[C@@H](NC(=O)c2ccc3c(c2)OCO3)[C@H](CO)O1)NCc1ccc(F)cc1 | -9.1 | -8.1
Cc1noc(C)c1S(=O)(=O)N(C)C[C@H]1OCc2cnnn2CCCC(=O)N([C@H](C)CO)C[C@@H]1C | 10.8 | 8.4
C[C@H](CO)N1C[C@H](C)[C@H](CN(C)C(=O)Nc2ccc(F)cc2)OCCCC[C@H](C)Oc2ccc(N(C)C)cc2C1=O | -17.5 | -8.2
CCC(=O)N1[C@@H]2Cn3c(ccc(/C=C/c4ccccc4)c3=O)[C@H]1[C@@H](C(=O)N1CCOCC1)[C@@H]2CO | -8.8 | 7.4
C[C@H](CO)N1C[C@H](C)[C@H](CN(C)C)Oc2c(NS(C)(=O)=O)cccc2C1=O | 13.8 | -1.2
COc1cccc(NC(=O)Nc2ccc3c(c2)C(=O)N(C)C[C@@H](OC)[C@H](C)CN[C@@H](C)CO3)c1 | 1.9 | 11.2
Cc1cc(C(=O)Nc2cccc3c2O[C@@H](CN(C)C(=O)Nc2ccc(F)cc2)[C@@H](C)CN([C@H](C)CO)C3=O)n(C)n1 | 8.3 | 3.9
O=C(C[C@@H]1CC[C@H](NC(=O)Nc2ccc3c(c2)OCO3)[C@H](CO)O1)NCc1ccc(Cl)cc1 | 11.7 | 5.3
CC(C)CC#Cc1ccc([C@H]2[C@H](CO)N3C(=O)CN(C(=O)NC4CCCC4)C[C@@H]23)cc1 | -5.3 | -7.2
C[C@H](O)C#Cc1ccc([C@H]2[C@H]3CN(CC4CC4)CCCCN3[C@H]2CO)cc1 | 12.6 | -1.7
CCCC#Cc1cnc2c(c1)C(=O)N([C@H](C)CO)C[C@@H](C)[C@@H](CN(C)C(=O)c1cnccn1)O2 | 0.6 | 0.5
O=C(C[C@@H]1CC[C@H]2[C@@H](COC[C@H](O)CN2Cc2ccc(F)cc2)O1)NCc1ccncn1 | 5.1 | 8.4
C[C@@H]1CN([C@H](C)CO)C(=O)c2cc(C3=CCCC3)cnc2O[C@@H]1CN(C)C(=O)Cc1ccncc1 | 24.8 | 21.3
COc1ccc(C(O)(c2cncnc2)C2CC2)cc1 (stereo not given) | 15.1 | 7.5
Cc1noc(C)c1NC(=O)N(C)C[C@@H]1OCCCC[C@@H](C)Oc2ccc(NS(=O)(=O)c3ccccc3)cc2C(=O)N([C@@H](C)CO)C[C@H]1C | 30.3 | 12.9
C[C@@H]1CN([C@@H](C)CO)C(=O)Cc2cc(NC(=O)Nc3ccc4c(c3)OCO4)ccc2O[C@@H]1CN(C)Cc1ccccc1 | -27.9 | -19.7
C[C@@H]1CN([C@H](C)CO)C(=O)c2cc(NC(=O)Nc3cccc4ccccc34)ccc2O[C@@H]1CN(C)S(C)(=O)=O | 39.4 | 24.5
C[C@H](CO)N1C[C@H](C)[C@H](CN(C)S(=O)(=O)c2cccs2)Oc2ccc(NS(=O)(=O)c3cn(C)cn3)cc2C1=O | 7.9 | 2.8
C[C@@H]1CN([C@H](C)CO)C(=O)Cc2cc(NS(=O)(=O)c3ccc(Cl)cc3)ccc2O[C@@H]1CN(C)Cc1ccc2c(c1)OCO2 | -3.9 | -0.5
COc1ccc2c3c([nH]c2c1)[C@H](CO)N(S(C)(=O)=O)CC31CCN(C(=O)c2ccccc2)CC1 | 16.0 | 2.8
O=C(NCC[C@H]1CC[C@@H](NC(=O)c2cccnc2)[C@H](CO)O1)Nc1ccc(C(F)(F)F)cc1 | -4.7 | 3.5
CCNC(=O)[C@@H]1[C@@H](CO)[C@@H]2Cn3c(ccc(-c4ccncc4)c3=O)[C@@H]2N1Cc1cc(F)ccc1F | 9.9 | 7.8
O=C(N[C@H]1CC[C@@H](CCn2cc(-c3ccccn3)nn2)O[C@H]1CO)c1ccncc1 | 2.2 | -2.7
Cc1noc(C)c1S(=O)(=O)Nc1ccc2c(c1)C(=O)N([C@H](C)CO)C[C@H](C)[C@H](CN(C)S(=O)(=O)c1ccc(Cl)cc1)O2 | 8.2 | -0.1
CN(C)C(=O)C[C@H]1C=C[C@@H](NC(=O)C2CCOCC2)[C@H](CO)O1 | 13.4 | 11.9
C[C@@H]1CN([C@H](C)CO)C(=O)c2cc(NC(=O)c3ccccc3)ccc2O[C@@H](C)CCCCO[C@@H]1CN(C)C(=O)Cc1ccccc1 | -25.6 | -33.1
C[C@@H]1CCCCO[C@H](CN(C)S(=O)(=O)c2ccc(Cl)cc2)[C@@H](C)CN([C@H](C)CO)C(=O)c2cc(NS(=O)(=O)c3cn(C)cn3)ccc2O1 | 25.0 | 9.1
CN(C)c1ccc2c(c1)[C@H]1C[C@@H](CC(=O)NCc3ccc(Oc4ccccc4)cc3)O[C@H](CO)[C@H]1O2 | -9.0 | -1.9
COc1ccccc1CN1[C@@H](CO)[C@@H]2c3ccccc3N(C(=O)C3CCCCC3)C[C@@H]21 | ? | .

Entries from the list above that have a thiophene ring, fused or not, in the order listed:
SMILES | Vaccinia stage | Vaccinia stage Venus
C[C@H](CO)N1C[C@H](C)[C@@H](CN(C)S(=O)(=O)c2cccs2)Oc2c(NS(=O)(=O)c3cn(C)cn3)cccc2C1=O | 14.0 | 11.1
C[C@@H]1CN([C@@H](C)CO)C(=O)c2cc(NS(=O)(=O)c3cccs3)ccc2O[C@H]1CN(C)Cc1ccc(C(F)(F)F)cc1 | -20.4 | -20.7
C[C@H](CO)N1C[C@H](C)[C@H](CN(C)S(=O)(=O)c2cccs2)Oc2ccc(NS(=O)(=O)c3cn(C)cn3)cc2C1=O | 7.9 | 2.8

Screening results deposited in PubChem by Broad Institute.

Only part of the results is shown. The share of hits here may be higher or lower than overall.
